H5N1 CPE = antiviral screen in MDCK cells, H5N1 avian flu; cytopathic effect, luminescence, 72 h; stronger effect = higher value; no value below 0 was filed and about half of the inactive calls have no number; reference of the scale not given here; inhibition, % at 50 µM; 96,000 compounds, 0.07% hits; AID 740; in the data active = inhibition above about 25%
The depositor's hits bear a star; i = inactive. A portion of the library; the hit share may differ from the screen's.

SMILES | H5N1 CPE
C=CCn1c(SCC(=O)N2CC(=O)Nc3ccccc32)nc2scc(-c3cccs3)c2c1=O | 2.3
CCOC(=O)C1=C(C)Nc2ncnn2C1c1cccnc1 (stereo unspecified) | 0.5
Cc1cccc(C(=O)CC(=O)c2cc(Cl)ccc2O)c1 | 12
CCc1ccc(NC(=O)C2CC=CCC2C(=O)O)cc1 (stereo unspecified) | i
COC(=O)c1sccc1NC(=O)CSc1ccccc1NS(=O)(=O)c1ccc(F)cc1 | 3.6
COc1ccc(C(=O)N2CCCC(c3ccccc3)C2)cc1 (stereo unspecified) | 2.5
CSc1ccc(CNc2ccccn2)cc1 | i
CCC(=NCc1ccccc1)C1=C(O)C(C(=O)OC)C(C)(C)CC1=O (stereo unspecified) | 0.9
COc1ccc(C2C(C#N)=C(N)Oc3n[nH]c(C)c32)cc1Cn1nnc2ccccc21 (stereo unspecified) | i
CCOC(=O)Cc1c(C)nc2c(-c3ccccc3)c[nH]n2c1=O | i
Brc1ccc(-c2ccc(/C=N/Nc3nncc(-c4ccccc4)n3)o2)cc1 | i
CCCc1cc(=O)oc2c(CN3CCCC3)c(O)c(Cl)cc12 | 0.2
COCc1nnc(NC(=O)c2ccc(NC(=O)C(C)C)cc2)s1 | 0.5
CCC(C)NC(=O)CSc1nc2n[nH]c(C)c2c(=N)n1-c1ccc(OC)cc1 (stereo unspecified) | i
CCn1nc(C(=O)OC(C(=O)c2c[nH]c3ccccc23)c2ccccc2)c2ccccc2c1=O (stereo unspecified) | i
CC(C(=O)N1CCN(c2ccc(Cl)cc2)CC1)c1ncc(C(F)(F)F)cc1Cl (stereo unspecified) | i
CN1CC(=O)N(CC(=O)NCc2ccc3c(c2)OCO3)C1=O | i
CC(C)Oc1cccc(-c2cc(C(=O)N3CCN(S(C)(=O)=O)CC3)c3ccccc3n2)c1 | i
CC(=O)c1ccc(NC(=O)C2CCN(S(=O)(=O)c3cccc4cccnc34)CC2)cc1 | 1.9
CCN(CC)CCCN1C(=O)CSC1c1ccc2c(c1)OCO2 (stereo unspecified) | i
O=C1CC(c2ccc(F)cc2)C2=C(CCCC2=O)N1 (stereo unspecified) | i
NC(=O)C(F)(F)C12OC3C4C5CC(C6C5C3C61)C42 (stereo unspecified) | 0.3
CCN1CC=C2C(C#N)=C(N)C(C#N)(C#N)C(c3cc(Cl)ccc3Cl)C2C1 (stereo unspecified) | 3.5
Cc1ccc(NC(=O)C/C(N)=N/O)cc1C | 0.8
CSc1ccccc1NC(=O)Cn1c(-c2cscn2)nc2ccccc21 | 0.6
CCCOc1ccc(NC(=O)c2c(-c3ccccc3)noc2C)cc1 | 0.3
CCCCC(=O)Nc1ccc(F)c(Cl)c1 | i
CN(C)/C=N/c1cnc(C(=O)c2ccc(Cl)cc2)n1C | i
NC(=O)COc1ccc2c3c(c(=O)oc2c1)CCCCC3 | 2.1
Cc1c(C2CC(=O)N(c3ccccc3)C2=O)[nH]n(-c2ccccc2)c1=O (stereo unspecified) | i
Cn1cnc([N+](=O)[O-])c1Sc1ncccc1N | 4.8
Cc1ccc2c(c1)c(CC(=O)Nc1ccc(F)cc1)c(C(=O)O)n2C | 0.6
O=C(c1ccc(COc2ccccc2[N+](=O)[O-])o1)N1CCCCCC1 | 0.1
Cn1nc(C(F)(F)F)c(C(=O)Nc2cccc(Cl)c2)c1Cl | 1.1
O=c1cc(NCc2ccco2)c2ccccc2o1 | 7.2
CCOC(=O)Cc1csc(NC(=O)c2csc3c2CCCC3)n1 | i
C=CCOc1c(CNc2cccc(C(=O)O)c2)cccc1OC | i
Cc1nc(NCCc2ccc(S(N)(=O)=O)cc2)c2c3c(sc2n1)CCC3 | i
CSc1ccccc1C(=O)NC1CCCCCC1 | i
Cc1cc(=O)oc(C)c1C(=O)n1nc(C)c2c1C[C@@H]1[C@H]2C1(C)C | 0.7
CCOc1cccc(C(=O)Nc2ccccc2N2CCN(C(=O)C(C)C)CC2)c1 | i
CN(C)Cc1nc2c(c(=O)[nH]1)C1(CCCCC1)Cc1ccccc1-2 | i
CNC(=O)c1nnn(Cc2ccccc2)c1NC(=O)C(F)(F)F | 0.1
Cn1c(=O)[nH]c(=O)c2c1nc(N1CCCCC1)n2CCCSc1nc2ccccc2s1 | 3.3
CC(Oc1ccc(Cl)cc1Cl)C(=O)N(Cc1ccco1)C1CCS(=O)(=O)C1 (stereo unspecified) | 1.0
Cn1c(SCC(=O)Nc2ccc(N3CCOCC3)c(Cl)c2)nnc1C(O)c1ccccc1 (stereo unspecified) | 1.4
Cc1c(NC(=O)CCC(=O)N2CCCCC2)c(=O)n(-c2ccccc2)n1C | i
Cc1ccc(Cn2nnnc2CN2CCC(O)(c3ccccc3F)CC2)cc1 | 0.7
O=C(Nc1ccc(CN2CCOCC2)cc1)c1ccc(-c2cc(Cl)ccc2Cl)o1 | i
COc1ccc2c(c1)cc1n2CCN=C1NN | 0.7
O=C(NCc1ccccc1)c1ccc(COCC(F)(F)F)o1 | i
O=C(Nc1ncc2c(n1)-c1ccccc1OC2)c1ccc(Cl)cc1 | 0.9
Cc1noc(C)c1C(=O)N1CCN(C(=O)c2sc3cc(Cl)ccc3c2Cl)CC1 | 2.5
O=C(NNC(=O)C1CCN(Cc2cccc(F)c2)CC1)c1cccc(Cl)c1 | i
CCOC(=O)c1ccccc1NC(=O)Cn1cnc2c(oc3ccccc32)c1=O | 0.6
O=C(Cn1c(=O)c(C(F)(F)F)nc2ccccc21)N1CCC2(CC1)OCCO2 | 0.1
Cc1cc(/C=N\NC(=O)CC(=O)NC2CCCCC2)c(C)n1-c1ccc(Cl)cc1 | 0.1
COc1ccccc1NC(=O)c1nnn(Cc2ccccc2)c1NC(=O)C(F)(F)F | i
Cn1nc(C(=O)NC2CCCCCC2)ccc1=O | i
CCOc1ccc(N(C(C)C(=O)NC(C)CC)S(C)(=O)=O)cc1 (stereo unspecified) | 0.9
(next part)
SMILES | H5N1 CPE
O=C1NC2(CCCCCC2)Cc2ccccc21 | 1.3
COc1ccc(/C=N/NC(=O)c2[nH]ncc2Br)c(OC)c1 | 0.4
Cc1ccccc1-c1nc(CS(=O)CC(=O)NCc2ccccc2)c(C)o1 (stereo unspecified) | i
Cc1ccc2nc(NC(=O)C3CCN(S(=O)(=O)c4cccs4)CC3)sc2c1 | 2.5
Cc1ccc(S(=O)(=O)C2CS(=O)(=O)CC2O)cc1 (stereo unspecified) | i
COc1ccc(C(=O)N2CCN(C3CCCCC3)CC2)c(OC)c1 | i
Cc1nc2c(sc3nc4c(cc32)COC(C)(C)C4)c(=O)n1CC(=O)NCc1ccco1 | 0.8
Cn1c(=NC(=O)CSCC(=O)N2CCCCC2)sc2ccccc21 | 0.9
COc1ccc(C(=O)Nc2nc(N3C(=O)c4ccccc4C3=O)n(-c3ccccc3)n2)cc1 | i
OCCCCCN=c1cc(-c2ccccc2)oc2ccc(Cl)cc12 | i
CN1CCc2c(c(N3CCCCC3)nc3n[nH]c(N)c23)C1 | 1.3
COCc1nnc(NC(=O)CC(c2ccccc2)c2ccccc2)s1 | 0.7
Cc1c(C(=O)NCc2ccc3c(c2)OCO3)sc2nc(-c3ccc(F)cc3)cn12 | i
O=C(Cn1nc(-c2ccccc2)ccc1=O)NCCN1CCN(Cc2ccccc2)CC1 | i
COc1ccc2oc(=O)c(C(=O)O)cc2c1 | 0.1
Cc1n[nH]c(=O)nc1NCc1ccc(Cl)cc1 | 0.2
CS(=O)(=O)N1CCN(c2ccccc2NC(=O)c2cccnc2)CC1 | 1.4
CCCOc1nnnn1-c1ccccc1 | 2.0
Cn1c(-c2ccc(CN3CCCCC3)o2)nc2ccccc21 | i
Cc1oc(-c2ccc(Cl)cc2)cc1-c1nn2c(-c3ccoc3C)nnc2s1 | 1.8
Cc1ccc(SCC(=O)NCCN2C(=O)CSC2=O)cc1C | 1.0
O=c1c(Cc2ccc(F)cc2)c(O)ccn1C1CC1 | 1.3
CC(=O)Nc1cc2c(cc1NC(=O)Cn1nc(-c3ccc4c(c3)OCCO4)ccc1=O)OCCO2 | i
Nc1c(-c2cccs2)cnn1-c1nc(-c2ccc(Cl)cc2Cl)cs1 | i
O=C(CSc1nnnn1Cc1ccccc1)Nc1ccc2c(c1)OCO2 | 0.2
CCOC(=O)c1c(C)nc2ccc(C)cn12 | i
CCCC(=O)NC1=C(C#N)C2(CCCC2)Cc2ccccc21 | 0.3
CCCn1cc(NC(=O)C2CC(c3cccc(Br)c3)=NO2)cn1 (stereo unspecified) | 1.3
CCN=C1SC(CC(=O)NCCc2ccc(OC)c(OC)c2)C(=O)N1CC (stereo unspecified) | i
CCOC(=O)c1cnc(-n2nc(C)cc2C)nc1NC | 0.2
CCCC(=O)OCCn1c(Br)nc2c1c(=O)[nH]c(=O)n2C | i
O=C(CSc1nc2ccccc2[nH]1)Nc1ccccc1N1CCOCC1 | 0.4
CC(C)NC(=O)COC(=O)c1ccc(O)cc1 | 0.8
O=C(NCCN1Cc2ccccc2C1=O)c1cccs1 | 1.2
CCOC(=O)C1=C(Cc2ccc(Cl)cc2)C(=O)c2ccccc2C1=O | i
C=CCSC1=C(C#N)C(c2cc(Br)c(O)c(OC)c2)CC(=O)N1 (stereo unspecified) | i
O=C(c1ccco1)N1CCN(S(=O)(=O)c2ccc3c(c2)OCCO3)CC1 | 1.2
CCC(=O)Nc1ccc(C(=O)N/N=C/c2cccnc2)cc1 | 0.3
CC(C)C(NS(=O)(=O)c1ccc2c(c1)OCCO2)C(=O)NCCc1ccccn1 (stereo unspecified) | 0.7
O=C(CCN1C(=O)c2cccnc2C1=O)NC1CCCCCC1 | 0.3

Reformatted as tab-separated lines: entries from further up
compound	H5N1 CPE
CC(=O)Nc1cc2c(cc1NC(=O)Cn1nc(-c3ccc4c(c3)OCCO4)ccc1=O)OCCO2	i
Nc1c(-c2cccs2)cnn1-c1nc(-c2ccc(Cl)cc2Cl)cs1	i
O=C(CSc1nnnn1Cc1ccccc1)Nc1ccc2c(c1)OCO2	0.2
CCOC(=O)c1c(C)nc2ccc(C)cn12	i
CCCC(=O)NC1=C(C#N)C2(CCCC2)Cc2ccccc21	0.3
CCCn1cc(NC(=O)C2CC(c3cccc(Br)c3)=NO2)cn1 (stereo unspecified)	1.3
CCN=C1SC(CC(=O)NCCc2ccc(OC)c(OC)c2)C(=O)N1CC (stereo unspecified)	i
CCOC(=O)c1cnc(-n2nc(C)cc2C)nc1NC	0.2
CCCC(=O)OCCn1c(Br)nc2c1c(=O)[nH]c(=O)n2C	i
O=C(CSc1nc2ccccc2[nH]1)Nc1ccccc1N1CCOCC1	0.4
CC(C)NC(=O)COC(=O)c1ccc(O)cc1	0.8
O=C(NCCN1Cc2ccccc2C1=O)c1cccs1	1.2
CCOC(=O)C1=C(Cc2ccc(Cl)cc2)C(=O)c2ccccc2C1=O	i
C=CCSC1=C(C#N)C(c2cc(Br)c(O)c(OC)c2)CC(=O)N1 (stereo unspecified)	i
O=C(c1ccco1)N1CCN(S(=O)(=O)c2ccc3c(c2)OCCO3)CC1	1.2
CCC(=O)Nc1ccc(C(=O)N/N=C/c2cccnc2)cc1	0.3
CC(C)C(NS(=O)(=O)c1ccc2c(c1)OCCO2)C(=O)NCCc1ccccn1 (stereo unspecified)	0.7
O=C(CCN1C(=O)c2cccnc2C1=O)NC1CCCCCC1	0.3

(more compounds)
SMILES | H5N1 CPE
Cn1nnc2cc(NC(=O)NCc3ccc4c(c3)OCO4)ccc21 | 0.3
O=C(Nc1cccc(C(F)(F)F)c1)N(Cc1ccc(Cl)cc1)CC(O)C(F)(F)F (stereo unspecified) | 0.2
CCSc1nnc(NC(=O)c2ccco2)s1 | 0.5
C=CCN1CC2CC3(COc4cc(C)cc(C)c4)C=CC2(O3)C1=O (stereo unspecified) | 3.6
CCOC(=O)c1nc(N)sc1C(=O)OCC | i
COCCn1c(SCC(=O)N2CCCc3ccccc32)nc2ccccc2c1=O | 1.6
CC1=C(C(=O)Nc2ccccn2)C(c2ccccc2)n2ncnc2N1 (stereo unspecified) | 0.4
CC1(C)Cc2c(c(N3CCOCC3)nc3sc4c(NCc5ccccc5)nnnc4c23)CS1 | i
CSc1nc2c(c(=O)[nH]c(=O)n2C)n1C/C=C(\C)Cl | 0.1
O=C(Nc1cccc(-c2nc3ncccc3o2)c1)c1sc2ccccc2c1Cl | i
Cc1cc(=O)oc(C)c1C(=O)NCCNC(=O)c1c(C)cc(=O)oc1C | 0.4
O=c1c2ccccc2nc(-c2ccoc2)n1CCc1ccccc1 | 2.3
O=S1(=O)C=C(Oc2ccc(F)cc2)c2ccccc21 | 1.4
COc1cc(C(=O)COC(=O)Cc2cnc3sccn23)cc(OC)c1OC | 1.4
Cc1ccccc1NC(=O)NCCCN1CCCC1 | 0.6
CCOC(=O)c1sc2nc(CC(=O)OC)nc(N3CCN(c4ccccn4)CC3)c2c1C | i
COc1ccc(CCNC(=O)CSc2nc(N)c3c(C)c(C)oc3n2)cc1OC | i
COc1ccc(/C=C/C2=NC(=C\N(C)C)/C(=O)O2)cc1 | i
O=C(NC1CCCCC1)C1CCN(c2nccs2)CC1 | 0.6
O=C(Nc1cccc(C(F)(F)F)c1)c1ccc2nc(N3C(=O)CCC3=O)sc2c1 | i
O=C(c1ccccc1)c1nnc(-c2ccncc2)o1 | i
Cc1cc(C)n2nc(-c3sccc3-n3c(C)ccc3C)cc2n1 | 1.3
COc1ccc2[nH]c(=O)c(CN(C(=O)c3ccncc3)C(C)(C)C)cc2c1 | i
CCOC(=O)c1c(NC(=O)c2nn(CC)cc2Br)c(C#N)cn1-c1ccccc1 | 0.1
O=c1ccc(S(=O)(=O)N2CCC(Cc3ccccc3)CC2)c[nH]1 | i
CCN=C1SC(CC(=O)NC(C)C)C(=O)N1CC (stereo unspecified) | i
O=C(Nc1ccccc1Cl)c1cccc(COc2cc(Cl)ccc2Cl)c1 | i
Fc1ccc(-c2nnc(NC3=NCCCCC3)o2)cc1 | i
CN(Cc1cccs1)C(=O)COc1cccc(-n2cnnn2)c1 | 2.3
COC(=O)c1cccc(NC(=O)CSc2nnnn2C)c1 | 1.9
O=C(CCl)Nc1ccc(Oc2cnc3ccccc3n2)cc1 | 2.5
Cc1ccc(OCCSCc2nc3ccccc3[nH]2)cc1 | i
Cc1nnc(SCCn2c(N(C)Cc3ccccc3)nc3c2c(=O)[nH]c(=O)n3C)s1 | 5.2
Cc1cc(NC(=O)CCc2ccc(C)o2)no1 | i
O=C(NCc1ccccc1F)C1CCCN(C(=O)NC2CCCCC2)C1 (stereo unspecified) | i
